# GCN5L2 inh: blocks human GCN5L2 histone acetyltransferase; Q92830; GCN5L2 HAT assay, ThioGlo1 CoA-SH fluorescence; Potency, µM (top dose mostly 58.9 µM), for inactives: top-dose activity change, negative = inhibition, usual class: inhibitors; 0.21% of 390,000 active
# Target sequence (Q92830 whole entry, looked up): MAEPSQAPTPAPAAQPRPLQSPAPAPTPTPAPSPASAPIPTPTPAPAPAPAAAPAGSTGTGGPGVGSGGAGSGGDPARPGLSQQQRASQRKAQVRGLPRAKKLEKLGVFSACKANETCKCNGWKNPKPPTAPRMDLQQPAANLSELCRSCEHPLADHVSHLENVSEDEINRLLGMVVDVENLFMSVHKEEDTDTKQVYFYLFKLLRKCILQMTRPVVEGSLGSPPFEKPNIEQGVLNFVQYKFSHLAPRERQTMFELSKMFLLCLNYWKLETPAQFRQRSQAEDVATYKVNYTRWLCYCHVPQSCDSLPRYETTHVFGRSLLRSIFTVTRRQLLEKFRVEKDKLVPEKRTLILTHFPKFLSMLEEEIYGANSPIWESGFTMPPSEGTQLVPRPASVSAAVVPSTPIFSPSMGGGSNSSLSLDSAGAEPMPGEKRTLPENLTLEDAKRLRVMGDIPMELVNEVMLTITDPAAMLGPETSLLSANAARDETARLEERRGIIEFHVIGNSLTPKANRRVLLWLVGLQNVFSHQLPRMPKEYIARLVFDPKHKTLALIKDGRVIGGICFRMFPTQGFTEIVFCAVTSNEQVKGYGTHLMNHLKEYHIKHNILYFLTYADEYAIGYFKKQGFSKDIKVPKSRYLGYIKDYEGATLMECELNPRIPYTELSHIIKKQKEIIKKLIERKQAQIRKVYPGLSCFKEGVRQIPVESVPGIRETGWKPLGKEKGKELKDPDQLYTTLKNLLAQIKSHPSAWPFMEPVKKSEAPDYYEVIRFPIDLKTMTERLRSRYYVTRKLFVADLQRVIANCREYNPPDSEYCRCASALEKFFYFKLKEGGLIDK
#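 qHTS, 1536-well. 20nM enzyme, pH 7.5 HEPES/EDTA/Tween-20 buffer; 15 min compound preinc., RT. Start: 75uM H3(1-25), 70uM AcCoA, 50uM ThioGlo1. Read Ex340/Em540 at t=0 (autofluorescence flag) and t=20 min.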
# N370S GC: inhibits or activates N370S mutant glucocerebrosidase. N370S GC spleen homogenate, 4MU-glucoside fluorescence. Potency, µM (titrated, usually from 59.4 µM), inactives show at the highest dose activity change, negative = inhibition, hits mostly inhibitors. 0.092% of 330,000 active;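 further: 0% = full enzyme activity and -100% = no enzyme basal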
# * = called active by the depositor; ? = inconclusive; · = not tested or not shown; & = joins results of further samples; [ ] = another dose, or the depositor's remark. The call rests on the fitted dose curve; in most records, active means well fitted curve in the direction sought with a large enough effect; inconclusive means small, poorly fitted or top-dose-only effect, or another doubt; inactive means no such curve, though single readings can be large; an effect the other way counts as inactive or inconclusive. Unless noted, on the % scale 0 is the no-effect control and ±100 the full control effect; potency means the concentration at half of the fitted maximal effect. These rows are one share of the data; most or all hits stand in other tables.
# A first look (16 entries):
SMILES,GCN5L2 inh,N370S GC
Cn1c2ccccc2c(=O)c2c(=O)n(Cc3ccco3)c(COc3ccccc3)nc21,?,5.0%
O=S(=O)(/N=C(/c1ccccc1Cl)N1CCOCC1)c1ccccc1,1.9%,5.1%
CC1(C(=O)NCCc2c[nH]c3ccccc23)C=CC2(CCCCC2)N1C(=O)c1ccccc1 (stereo not given),-1.4%,1.3%
O=C(CSc1nc2ncc(Br)cc2[nH]1)Nc1ccc2c(c1)OCO2,-1.1%,12.4%
COc1ccc(NC(=O)CSc2cn[nH]n2)c(OC)c1,-4.1%,-6.1%
CC(Nc1ncnc2sccc12)c1ccccc1 (stereo not given),-14.8%,-9.8%
CCCc1cc(=O)oc2c3c(cc(OCC(=O)N[C@@H](CSC)C(=O)O)c12)OC(C)(C)CC3,-11.5%,?
CCOC(=O)/C=C1\CN(C(C)c2ccccc2)S(=O)(=O)c2ccccc21 (stereo not given),-9.7%,-9.3%
CCOCCCNC(=O)Cn1nc(C)n2c(cc3cc(C)ccc32)c1=O,-4.9%,·
Cc1cc(C)c(NC(=O)Nc2ccccc2)c(C)n1,1.2%,·
c1ccc(CN2CCN(CCCNc3ccc4nnc(-c5ccccc5)n4n3)CC2)cc1,-5.4%,-10.9%
CC(C)c1ccc(/C=N/Nc2ccc(C(=O)O)cc2)cc1,-8.9%,3.5%
Cc1ccc(-c2ccc(=O)n(CC(=O)Nc3ccc(C)cc3Cl)n2)cc1,-6.4%,·
Cc1cccc(N=Nc2cn[nH]c2-c2ccco2)c1,-1.3%,10.9%
COc1ccc(CNC(=S)Nc2cccc(F)c2)cc1,-2.1%,-14.3%
Cc1cc(C(=O)Nc2ccccc2Cc2ccccc2)no1,-4.3%,-1.4%

# Results, from the start:
SMILES,GCN5L2 inh,N370S GC
Cn1c2ccccc2c(=O)c2c(=O)n(Cc3ccco3)c(COc3ccccc3)nc21,?,5.0%
O=S(=O)(/N=C(/c1ccccc1Cl)N1CCOCC1)c1ccccc1,1.9%,5.1%
CC1(C(=O)NCCc2c[nH]c3ccccc23)C=CC2(CCCCC2)N1C(=O)c1ccccc1 (stereo not given),-1.4%,1.3%
O=C(CSc1nc2ncc(Br)cc2[nH]1)Nc1ccc2c(c1)OCO2,-1.1%,12.4%
COc1ccc(NC(=O)CSc2cn[nH]n2)c(OC)c1,-4.1%,-6.1%
CC(Nc1ncnc2sccc12)c1ccccc1 (stereo not given),-14.8%,-9.8%
CCCc1cc(=O)oc2c3c(cc(OCC(=O)N[C@@H](CSC)C(=O)O)c12)OC(C)(C)CC3,-11.5%,?
CCOC(=O)/C=C1\CN(C(C)c2ccccc2)S(=O)(=O)c2ccccc21 (stereo not given),-9.7%,-9.3%
CCOCCCNC(=O)Cn1nc(C)n2c(cc3cc(C)ccc32)c1=O,-4.9%,·
Cc1cc(C)c(NC(=O)Nc2ccccc2)c(C)n1,1.2%,·
c1ccc(CN2CCN(CCCNc3ccc4nnc(-c5ccccc5)n4n3)CC2)cc1,-5.4%,-10.9%
CC(C)c1ccc(/C=N/Nc2ccc(C(=O)O)cc2)cc1,-8.9%,3.5%
Cc1ccc(-c2ccc(=O)n(CC(=O)Nc3ccc(C)cc3Cl)n2)cc1,-6.4%,·
Cc1cccc(N=Nc2cn[nH]c2-c2ccco2)c1,-1.3%,10.9%
COc1ccc(CNC(=S)Nc2cccc(F)c2)cc1,-2.1%,-14.3%
Cc1cc(C(=O)Nc2ccccc2Cc2ccccc2)no1,-4.3%,-1.4%
CCOc1ccc(S(=O)(=O)N2CCC(C(=O)NC3CC3)CC2)cc1Cl,-1.8%,-14.7%
CCCn1nc(NC(=O)c2cccs2)c2cc3cc(OC)ccc3nc21,-18.3%,3.5%
O=C(CNC(=O)C1CCCCC1)OCn1nnc2ccccc2c1=O,0.1%,-3.9%
Brc1ccc(-n2cccc2/C=N/n2cnnc2)cc1,0.5%,17.7%
Cc1csc(=O)n1CCC(=O)OCC(=O)Nc1cc(Cl)ccc1[N+](=O)[O-],-5.2%,-1.2%
COc1cccc(NC(=O)C2C3C=CC4(O3)C2C(=O)N(C(C)C)C4C(=O)NC2CCCCC2C)c1 (stereo not given),-3.4%,21.6%
COc1ccccc1NC(=O)c1cc(Cl)nc2ccccc12,?,-13.0%
CC1CN(C(=O)/C=C/c2ccccc2[N+](=O)[O-])CC(C)O1 (stereo not given),-2.2%,0.3%
CN1CCN(/N=C/c2ccc(-c3ccccc3)cc2)CC1,-13.2%,-15.9%

# (listing goes on)
SMILES,GCN5L2 inh,N370S GC
Cc1cccc(-n2nnnc2SCc2csc(-c3ccccc3)n2)c1,-11.7%,7.5%
CCN(CC)S(=O)(=O)c1nnc(NC(=O)COc2ccccc2)s1,-1.1%,·
CCOc1ccccc1NC(=O)N1CCC(n2c(C)nc3cccnc32)CC1,0.3%,·
N#CCCN(C(=S)Nc1ccc(S(=O)(=O)N2CCOCC2)cc1)c1ccccc1F,-14.1%,-16.2%
Cc1ccc(CCNC(=O)C2CCN(S(=O)(=O)N3CCC4(CC3)OCCO4)CC2)cc1,1.9%,2.4%
CCOC(=O)N1CCN(C(=S)Nc2cc(OC)c(OC)cc2C(=O)OC)CC1,-16.6%,0.2%
O=C(CCN1C(=O)C2C3C=CC(C3)C2C1=O)NCCN1CCCc2ccccc21 (stereo not given),-20.3%,3.9%
O=C1/C(=C/c2ccccn2)SC(=S)N1c1ccc(O)cc1,-1.7%,-3.0%
COc1cccc(NC(=O)CN(C)C(=O)CN2C(=O)c3ccc([N+](=O)[O-])cc3C2=O)c1,-7.8%,-1.7%
CCCCCCn1c(CN2CCN(C)CC2)nc2c1c(=O)n(C)c(=O)n2C,-0.8%,3.3%
COc1cccc(-c2nn(-c3ccccc3)cc2CNC(C)Cn2cncn2)c1 (stereo not given),4.2%,0.4%
CCn1nnnc1SCC(=O)Nc1ccc2c(c1)OCO2,0.5%,3.0%
Cc1cc(NC(=O)NC2CC(=O)N(c3ccc4c(c3)OCCO4)C2)no1 (stereo not given),-4.9%,8.7%
CS(=O)(=O)c1ccc2nc(NC(=O)c3ccc(N4C(=O)CCC4=O)cc3)sc2c1,-6.9%,5.3%
CC(C)n1c(SCC(=O)Nc2nc3c(s2)CCCC3)nc2c1c(=O)n(C)c(=O)n2C,-1.9%,?
COc1cccc(C(=O)Nc2cccc(C(=O)N3CCOCC3)c2)c1,-15.4%,-0.9%
CCn1c(C(=O)NCc2ccccn2)cc2sccc21,?,-1.4%
COc1cc(NC(=O)CSc2nccc(=O)[nH]2)c(C)cc1[N+](=O)[O-],-9.2%,0.3%
COc1ccc(CN(C)C(=O)CCN2C(=O)c3ccccc3C2=O)c(OC)c1OC,0.2%,-3.9%
Cc1ccc(NS(=O)(=O)c2cc(NC(=O)c3ccc4c(c3)NC(=O)CS4)ccc2Cl)c(C)c1,-10.5%,-4.3%
CCN(CC1COc2ccccc2O1)C(=O)CN1C(=O)NC(C)(c2ccc(C)cc2)C1=O (stereo not given),-14.3%,-8.1%
Cc1cccc(Oc2ccc(NC(=O)c3ccccc3C(=O)O)cc2)c1C,-17.9%,0.7%
COc1ccc(-c2nc3sc(CCNC(=O)Cc4ccc(F)cc4)c(C)n3n2)cc1,1.6%,·
O=C1CC(NCc2ccc3c(c2)OCO3)C(=O)N1Cc1ccc2c(c1)OCO2 (stereo not given),-12.3%,-11.7%
CC(C)[C@H](NC(=O)c1ccccc1)C(=O)OCc1nnc(-c2ccccc2)o1,-4.0%,15.3%

# Other records follow:
SMILES,GCN5L2 inh,N370S GC
CC(C)C1(C(C)C)OC(=O)c2ccccc21,0.0%,9.2%
CC[C@@H]1CCCCc2ccccc2[C@@H](C(=O)C[C@@H](O)CC(C)=O)OC1=O,-1.3%,·
COc1ccccc1C(=O)COC(=O)c1ccc(-n2cnnn2)cc1,-5.7%,0.1%
CCOC(=O)C1=C(C)NC(=S)NC1c1ccsc1 (stereo not given),-7.6%,2.4%
NS(=O)(=O)c1ccc(NC(=O)COC(=O)CSCc2ccc(F)cc2)cc1,-2.0%,·
CCOC(=O)c1cnc(-n2cc(C)cn2)nc1Nc1ccccc1OCC,-5.6%,9.8%
O=C1c2ccccc2C(=O)N1OCCOCCOCCON1C(=O)c2ccccc2C1=O,0.7%,-22.0%
FC(F)(F)c1cc(-c2cccs2)nc(N2CCOCC2)n1,-11.9%,1.9%
O=C(Nc1ccc(C(=O)NCc2ccccc2Cl)cc1)C1=CSCCO1,-5.8%,0.9%
CC1(C)Cc2nc(-c3ccccc3)nc(SCC(=O)N3CCCC3)c2CO1,2.4%,5.5%
COc1ccc(/C=C2/SC(=O)N(CC(=O)Nc3cc(C)on3)C2=O)cc1OC,4.8%,5.0%
O=C(CSc1nc2ccccc2c(=O)n1-c1ccccc1)N1CCCC1,-1.5%,4.5%
COc1ccc(-c2cn[nH]c2N)c(OC)c1,1.1%,-5.2%
COC(=O)c1cccc(Nc2c3c(nc4ccccc24)CCC3)c1,-2.6%,-4.0%
O=C1NC(=S)S/C1=C\c1ccc2ccccc2c1,-3.0%,-0.5%
CNc1nc(SCC(=O)Nc2ccc(Cl)c(Cl)c2)nc(N2CCOCC2)n1,-19.7%,-9.2%
Cc1ccccc1CNC(=O)Cn1c(=O)c2cccn2c2cccnc21,-1.6%,·
C=CCn1c(-c2csc3c2CCC(C)C3)n[nH]c1=S (stereo not given),-3.0%,1.8%
CC(Cc1c[nH]c2ccccc12)C(=O)N1CCN(c2ccccc2F)CC1 (stereo not given),32.2%[activator],-12.8%
CCOC(=O)N1CCC(N2CCCC(C(=O)c3ccccc3OC)C2)CC1 (stereo not given),-0.8%,-1.6%
COC(=O)c1cccc(N2C(=O)C3CC=CCC3C2=O)c1 (stereo not given),-3.5%,-0.1%
CCOC(=O)c1c(C)oc2nc(C)nc(NCC3CCN(Cc4ccc(F)cc4)CC3)c12,-9.6%,·
COc1ccccc1/C=C/C(=O)NCC(=O)N1CCC(N(C)C2CCCC2)CC1,-9.0%,-18.9%
Cc1occc1C(=O)NCc1ccccc1F,-15.0%,-3.1%
CC(C)(C)C(=O)N1CCc2cc(-c3csc(N)n3)ccc21,-11.9%,15.6%

# (more compounds)
SMILES,GCN5L2 inh,N370S GC
COc1cc(/C=N\NC(=O)c2sc(N)nc2C)cc(OC)c1OC,-2.0%,7.6%
O=C(O)c1sc2cc(C(F)(F)F)cnc2c1-c1cccs1,-5.3%,1.7%
Cc1cc(C)c2c(=O)c3c(oc2c1)C(=O)N(CCO)C3c1cccc(O)c1 (stereo not given),-6.6%,?
CCc1nc(CN(C)C(=O)C2CCC(=O)N(CCc3cccc(F)c3)C2)no1 (stereo not given),1.2%,-0.5%
CCN(CC)C(=O)CSC(Nc1ccc(F)cc1)=C(C#N)C#N,-4.1%,-3.4%
O=C(Nc1nc(COc2ccccc2)cs1)C1CCC1,1.9%,3.8%
COCC(C)NC(=O)C1CC(c2cccc(Br)c2)=NO1 (stereo not given),1.0%,-11.8%
c1cc(C2OCCN2CC2COC3(CCCC3)O2)ccn1 (stereo not given),-4.7%,-21.6%
COc1ccc(NC(=O)COC(=O)c2ccc(-n3nc(C)cc3C)cc2)cc1OC,-0.2%,·
CSc1ccccc1C(=O)NCCOc1cccc(C)c1,-0.1%,2.6%
O=C(NC(=S)N1CCc2ccccc21)c1ccccc1Br,1.7%,0.8%
COc1cc(NC(=O)COC(=O)c2cnc(C)cn2)c(C)cc1[N+](=O)[O-],-7.1%,-0.3%
CCCCCOc1ccc(C(=O)CCN2CCOCC2)cc1,-2.4%,-10.0%
O=C1CCC([N+](=O)[O-])C(c2ccc(Cl)cc2)N1 (stereo not given),?,7.4%
Cn1c(C(=O)NCCN2CCOCC2)cc2sccc21,-5.8%,0.3%
Cc1cccc(-c2nc(C#N)c(N3CCC(C)CC3)o2)c1,1.3%,0.8%
CCOC(=O)C(NC(=O)Cc1ccccc1)(Nc1cc(C)on1)C(F)(F)F (stereo not given),-6.9%,1.0%
c1ccc(CCN2CCN(c3ncnc4c3cnn4-c3ccccc3)CC2)cc1,-6.3%,-0.9%
CC(Sc1nnnn1C)C(=O)Nc1ncc(Cl)cc1Cl (stereo not given),-2.6%,·
O=C(COC(=O)C1CCCN1C(=O)C12CC3CC(CC(C3)C1)C2)c1ccc(Br)cc1 (stereo not given),25.5%,6.2%
CCOC(=O)c1c(S(=O)(=O)N2CCCC(C(=O)Nc3ccc(OCC)cc3)C2)c(C)n(C)c1C (stereo not given),-8.9%,·
COc1ccc(Br)cc1CNC(=O)CCC(=O)N1CCSc2ccccc21,-2.7%&-1.5%,-2.5%
CCN1CCN(c2cc(C)c3cc(NC(=S)N4CCOCC4)ccc3n2)CC1,-10.0%,6.1%
CCOc1ccc(NC(=O)CNC(=O)c2nn(-c3ccc(OC)cc3)c(=O)c3ccccc23)cc1,-29.2%,-2.9%
O=C(COC(=O)c1cc(F)cc(F)c1)NCCCc1ccccc1,-16.2%,-4.0%

# Next section.
SMILES,GCN5L2 inh,N370S GC
CCCc1cc(=O)oc2c(C)c(OCC(=O)NCc3ccccn3)ccc12,-3.5%,2.1%
c1ccc(CCOn2ccnc2)cc1,28.5%,-1.3%
O=C(CN(Cc1ccc(F)cc1)C(=O)CCC(=O)Nc1ccccn1)NCCc1ccccc1,-0.4%,-7.4%
CC1=C(C(=O)Nc2ccccc2)C(c2cccnc2)n2ncnc2N1 (stereo not given),-8.9%,4.4%
Cc1ccc(-c2noc(C3CCCN(C(=O)c4c(F)cccc4F)C3)n2)cc1 (stereo not given),-7.5%,9.4%
Cc1cnc(C(=O)OCC(=O)N(CC(C)C)C2CCS(=O)(=O)C2)cn1 (stereo not given),1.7%,·
